TAR Tat displ = TAR RNA-Tat peptide displacers, HIV-1, primary screen, biochemical, FRET, FAM/TAMRA-labeled Tat | 0.6% of 100,000 active | HIV-1 TAR RNA, Tat peptide displacement FRET; stronger effect = higher value | z-score (no concentration beside the values);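 also: score is relative to mean and SD of negative controls; some compounds called inactive have numbers as strong as hits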
CDC25B-CDK2 inh = primary biochemical HTRF screen for blockers of M-phase inducer phosphatase 2 binding to CDK2/cyclin A. P30305+P24941. HTRF CDC25B-CDK2/CyclinA binding, anti-His/anti-Flag; stronger effect = higher value. z-score (test concentration not listed). 0.72% of 94,000 active;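 also: score is relative to mean and SD of negative controls; strong numbers were not always called active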
Numbers without * were called inactive; . = not tested or not shown; & = joins results of further samples.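 The calls were made as follows: active = z-score from 3 up in half or more of its runs; inactive = the rest.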

Every second line gives: CDC25B-CDK2 inh | TAR Tat displ
CC(=O)NCCNC(=O)CC(C)CC1=NS(=O)(=O)c2ccccc2N1 (stereo not drawn)
    . | 2.3
CC(C)NC(=O)Cn1cc2c(n1)CCCC2
    0.95 | .
CC1=C(c2ccc(C(C)C)cc2)S(=O)(=O)N(Cc2ccc(C(=O)NC3CCCC3)cc2)C1=O
    . | 1.4
O=C(O)C1=CC(c2ccc(OCc3ccccc3)cc2)n2ncnc2N1 (stereo not drawn)
    1.2 | 1.4
Cn1c(=O)c2c(nc(N3CCN(CCO)CC3)n2CC(O)c2ccccc2)n(C)c1=O (stereo not drawn)
    -2.2 | 0.47
COc1cc(C=Nc2ccc(N3N=C(C)CC3=O)cc2)ccc1O
    -1.4 | .
CN1CCN(c2nc(Nc3ccc(F)cc3)c3cnn(C)c3n2)CC1
    . | 0.23
O=C1c2ccccc2C(Nc2ccc(F)cc2F)N1c1ccccn1 (stereo not drawn)
    -0.56 | 2.3
CN1CCN(C(=O)CN2C(=O)CCc3cc(S(=O)(=O)N4CCCCC4)ccc32)CC1
    . | 0.37
Cn1c(=O)c2c(nc(NCc3ccc4c(c3)OCO4)n2Cc2ccc(Cl)cc2)n(C)c1=O
    0.01 | .
Cc1nc2sc3c(c2c2nc(=O)c(CCC(=O)O)nn12)CC(C)(C)OC3
    -2.1 | -0.16
Cc1cc2[nH]c(=O)c(=O)[nH]c2cc1S(=O)(=O)NC1CCCCC1
    . | -0.07
CCOC(=O)c1oc2ccc(S(=O)(=O)Nc3cc4[nH]c(=O)[nH]c4cc3C)cc2c1C
    . | -0.63
Cc1oc2ncnc(N3CCOCC3)c2c1C(=O)N1CCCc2ccccc21
    . | 0.02
CC(C)Cn1c(N2CCCC2)nc2c1c(=O)[nH]c(=O)n2C
    -1.2 | .
O=C(CSc1nnnn1-c1ccccc1)Nc1ccccc1
    -0.36 | .
CC(C)(C)c1ccc(-c2nc(S(=O)(=O)c3ccccc3)c(N3CCOCC3)o2)cc1
    -0.49 | -1.2
COC(=O)c1ccc(CN2C(=O)COc3ccc(Cl)cc32)o1
    -0.56 | 0.5
Nc1c(Br)cc(Br)cc1CNC1CCC(O)CC1 (stereo not drawn)
    . | 0.43&0.34
CCc1ccc(C2Nc3ccc(C(=O)O)cc3C3C4CCC(C4)C23)cc1 (stereo not drawn)
    2.6 | 2
Cc1ccc(-c2cn3nc(C(C)C)sc3n2)cc1C
    -0.9 | -0.13
COc1cc2[nH]cc(S(=O)(=O)c3ccc(F)cc3)c(=O)c2cc1OC
    1.3 | -6.2
Cc1ccc(-c2nnc3c4ccccc4c(C)nn23)cc1S(=O)(=O)N1CCCCC1
    -1.6 | 1.5
Cc1cccc(-c2nnc(C3CCN(S(=O)(=O)Cc4ccccc4)CC3)o2)c1
    -1.2 | -0.47
Cc1[nH]n(-c2ccccc2)c(=S)c1C=NC(C)Cc1ccccc1 (stereo not drawn)
    -4.4 | -0.43
COc1ccc(OC)c(C2=NS(=O)(=O)N(C)C(C(=O)Nc3cccnc3)=C2)c1
    -0.53 | 1.5
Cc1nc(SCc2ccccc2F)c2c(=O)n(C)c(=O)n(C)c2n1
    -2.4 | .
CCOC(=O)N1CCN(CC(O)COc2c(C)cc(C)cc2C)CC1 (stereo not drawn)
    0.15 | -0.14
CCOC(=O)/C(C#N)=C/NN(C)c1cccc(F)c1C#N
    -1.6 | .
C#CCn1c(COC)nc2ccccc21
    0.93 | 3.4
O=C1Cc2ccccc2C(c2ccccc2)N1 (stereo not drawn)
    -1.6 | .
COc1cccc(/C=C/c2nc(C#N)c(N(C)Cc3ccccc3)o2)c1
    -1.4 | -1.4
O=C(c1ccco1)C(O)c1ccco1 (stereo not drawn)
    -0.6 | .
CCOC(=O)CSc1nc(NC#N)nc(N(CC)CC)n1
    0.22 | 1.5
Cc1cc(C)nc(N2N=C(CSc3nnc(C)s3)CC2=O)n1
    -2.7 | 1.1
CN1C(=O)Cc2cc(S(=O)(=O)N3CCN(c4nc5ccccc5n5cccc45)CC3)ccc21
    2.5 | -2.8
CCCNC(=O)CCCN1C(=O)CCn2nc(C)cc21
    . | 2.3
O=C1CSC(=Nc2cccc(F)c2)N1Cc1ccc2c(c1)OCO2
    -1.5 | .
Cc1ccc(CN2CCc3nc(N4CCCC4)ncc3C2)cc1
    . | -0.17
CCCN1CCN(c2nnc(-n3cccc3CN3CCN(c4ccccc4)CC3)s2)CC1
    . | 0.1
CC1c2cccn2CCN1C(=O)Nc1cccc(Cl)c1 (stereo not drawn)
    . | -3.5
Cc1nc2sc(C(c3ccc(Cl)cc3)N3CC(C)CC(C)C3)c(O)n2n1 (stereo not drawn)
    -0.68 | .
COc1ccc(NC(=O)CSc2nnc(C3CC(=O)N(c4ccc(OC)c(Cl)c4)C3)o2)cc1 (stereo not drawn)
    . | 1.6
O=C(Cn1cnc2c(oc3ccccc32)c1=O)N1CCCc2ccccc21
    -2.9 | .
COc1ccc(C2=NN(C(=O)CSc3ncccn3)C(c3cccc(OC)c3OC)C2)cc1 (stereo not drawn)
    -1.2 | .
CCN(CC)c1ccc(NS(=O)(=O)c2cc(-c3cnc(C)o3)ccc2C)c(C)c1
    . | -1
CCCCN(CC)CCNC(=O)Cn1ncc2c(=O)oc3ccc(C)cc3c21
    -1.6 | 1.5
O=C(O)c1cc(-c2ccccc2)nn1Cc1ccccc1
    -0.81 | -0.5
CCC1Sc2ccc(S(=O)(=O)CCC(=O)Nc3ccccc3Br)cc2NC1=O (stereo not drawn)
    . | 0.15
O=C1c2[nH]nc(-c3ccccc3O)c2C(c2cccc(O)c2)N1CC1CCCO1 (stereo not drawn)
    -1.8 | 0.64

Grouped by structure: the entries above containing a cyano group
Every second line gives: CDC25B-CDK2 inh | TAR Tat displ
CCOC(=O)/C(C#N)=C/NN(C)c1cccc(F)c1C#N
    -1.6 | .
COc1cccc(/C=C/c2nc(C#N)c(N(C)Cc3ccccc3)o2)c1
    -1.4 | -1.4
CCOC(=O)CSc1nc(NC#N)nc(N(CC)CC)n1
    0.22 | 1.5

(cont.)
Every second line gives: CDC25B-CDK2 inh | TAR Tat displ
CCN(CC)C(=O)Cn1cc(SCC(N)=O)c2ccccc21
    . | 0.73
O=C(Nc1ccc(S(=O)(=O)N2CCOCC2)cc1)c1csnn1
    -1.3 | -2
COc1ccc2c(c1)CCCN2Cc1c[nH]c2ccccc12
    1.2 | .
NNC(=O)c1ccc(CSc2ccc(C(F)(F)F)cn2)o1
    1.1 | .
Cc1ccc2c(=O)cc(C(=O)Nc3sc4c(c3C(=O)NCC3CCCO3)CCCC4)oc2c1C (stereo not drawn)
    -1.3 | 0.49
Cc1ccc(-c2nnc3sc(-c4cccs4)nn23)cc1
    0.47 | 0.38
O=C1C(=O)N(CCCN2CCOCC2)C(c2ccccc2F)/C1=C(\O)c1ccc(Cl)cc1 (stereo not drawn)
    -1.1 | 1.9
CC1CN(C2CCN(Cc3ccc4c(c3)OCO4)CC2)CC(C)O1 (stereo not drawn)
    -2.9 | .
CC(C)C(=O)NS(=O)(=O)c1ccc(NS(C)(=O)=O)cc1
    -28 | -1.4
CCCC(=O)NCC(c1cccs1)S(=O)(=O)c1cccs1 (stereo not drawn)
    . | 0.25
Cc1ccc(-c2csc3c2ncn2c(=O)n(CC(=O)NCc4ccco4)nc32)cc1
    . | 0.07
COc1cc(OC)c2c(OC)c(-c3ccc4c(c3)OCO4)c(=O)oc2c1
    . | -0.27
COc1ccc(S(=O)(=O)Nc2ccc(Cl)c(N3CCCS3(=O)=O)c2)cc1OC
    . | 0.13
O=C(CN1c2ccc(Br)cc2-c2ccccc2S1(=O)=O)NC1CCCCC1
    -1.8 | 0.63
Cc1ccc(OC(=O)c2cccc([N+](=O)[O-])c2)c(Br)c1
    1.2 | .
CC1CN=C(c2ccccc2)c2ccccc2C(=O)O1 (stereo not drawn)
    -1.8 | .
COCCN1C(=O)c2cc(C(=O)O)ccc2C1O (stereo not drawn)
    -0.22 | 0.61
O=C(NCC1CCCO1)c1cccc(N2C(=O)CCS2(=O)=O)c1 (stereo not drawn)
    -1.3 | 1.5
Cn1c2c(c(=O)n(C)c1=O)C(c1ccc(-c3ccccc3)cc1)C1=C(N2)c2ccccc2C1=O (stereo not drawn)
    -2.1 | -1.1
Cc1c(CNC2CCCC2)c(C(=O)O)c(C)n1Cc1ccc(F)cc1
    0.17 | 0.23

Some of the entries above, reformatted:
SMILES | CDC25B-CDK2 inh | TAR Tat displ
O=C1c2ccccc2C(Nc2ccc(F)cc2F)N1c1ccccn1 (stereo not drawn) | -0.56 | 2.3
CN1CCN(C(=O)CN2C(=O)CCc3cc(S(=O)(=O)N4CCCCC4)ccc32)CC1 | . | 0.37
Cn1c(=O)c2c(nc(NCc3ccc4c(c3)OCO4)n2Cc2ccc(Cl)cc2)n(C)c1=O | 0.01 | .
Cc1nc2sc3c(c2c2nc(=O)c(CCC(=O)O)nn12)CC(C)(C)OC3 | -2.1 | -0.16
Cc1cc2[nH]c(=O)c(=O)[nH]c2cc1S(=O)(=O)NC1CCCCC1 | . | -0.07
CCOC(=O)c1oc2ccc(S(=O)(=O)Nc3cc4[nH]c(=O)[nH]c4cc3C)cc2c1C | . | -0.63
Cc1oc2ncnc(N3CCOCC3)c2c1C(=O)N1CCCc2ccccc21 | . | 0.02

Carrying on.
Every second line gives: CDC25B-CDK2 inh | TAR Tat displ
CNc1nc(NCc2ccccc2OC)c2cnn(C)c2n1
    . | 0.44
CC1=NN(C(=O)COc2cc(C)c(Cl)c(C)c2)C(O)(C(F)(F)F)C1 (stereo not drawn)
    -0.04 | .
CC1CCCCC1NC(=O)Cn1ncn2nc(-c3ccco3)cc2c1=O (stereo not drawn)
    -2.1 | -0.63
COc1ccc(-c2ccc(NS(=O)(=O)c3cc(C)c(C)cc3C)cc2)nn1
    . | 1.8
Cc1ccsc1CCNC(=O)CCS(=O)(=O)c1ccc2c(c1)CC(C)N2C(=O)C1CC1 (stereo not drawn)
    . | -0.02
CSc1nn(CSc2n[nH]c(-c3ccccc3F)n2)c(=S)s1
    -0.88 | .
O=C(Nc1ccccc1)c1cc(S(=O)(=O)Nc2cnc3ccccc3c2)ccc1Cl
    -1.8 | .
CCOc1ccc2nc(NC(=O)CN(C)S(=O)(=O)c3ccc4c(c3)CCC(=O)N4)sc2c1
    -1.6 | .
C=CCN1C(=O)C2(/C(=C(/O)c3ccc(OC)cc3)C(=O)C(=O)N2CCCOC)c2ccccc21 (stereo not drawn)
    -0.8 | 4.2
Cc1ccc(S(=O)(=O)N2CCCC2c2ccco2)cc1C (stereo not drawn)
    -1.3 | 0.49
Cc1nc2c(c(C)nn2C(C)(C)C)c(C)c1CCC(=O)N1CCc2ccccc21
    -0.26 | 1.3
CC1=C(C(=O)OCc2ccccc2)C(c2ccccc2)C2=C(CCCC2=O)N1 (stereo not drawn)
    -0.41 | .
CCCc1nn2c(=O)cc(CSc3n[nH]c(-c4ccc(OC)cc4)n3)nc2s1
    . | 0.35
Cn1cccc1CNCCSc1nnnn1-c1ccccc1
    0.33 | 0.52
O=C1CSc2ccc(S(=O)(=O)CCC(=O)N3CCc4ccccc43)cc2N1
    . | -9.9
CCOC(=O)N1CCC(Nc2c(NCCN3CCCCC3C)c(=O)c2=O)CC1 (stereo not drawn)
    -0.6 | -0.15
CC(C)Sc1nnc(SCC(N)=O)s1
    -1.8 | 0.87
CCCN1CCN(c2cc(NCCOC)c3c4c(onc24)-c2ccccc2C3=O)CC1
    -2.1 | -0.12
COCCNC(=O)C1CCCN(c2ncnc3onc(C)c23)C1 (stereo not drawn)
    . | 0.52
c1csc(-c2nn3c(Cn4nnc5ccccc54)nnc3s2)c1
    -1.1 | 1.6
COc1cc2c(cc1OC)[C@H]1[C@@H](C)c3ccc(OC)c(OC)c3CN1CC2
    . | 2.6
CCN1CCn2c3c(c4cc(C)ccc42)CCCC31 (stereo not drawn)
    -1.6 | 0.26
Cc1nc(CCNC(=O)C2CCN(C(=O)c3ccnn3C)CC2)cs1
    . | 1.5
O=C(OC1C(C2COC3(CCCCC3)O2)OC2OC3(CCCCC3)OC21)c1ccccc1 (stereo not drawn)
    -1.1 | .
COC(=O)c1sc2ccccc2c1S(=O)(=O)Nc1cccc(Cl)c1
    . | -1.2
N#Cc1cccnc1OCC(F)(F)F
    0.09 | .
CC1CSc2ccc(S(=O)(=O)N3CCN(c4ccc(F)cc4)CC3)cc2NC1=O (stereo not drawn)
    . | 0.59
CSc1cccc(NC(=O)N2CCn3cccc3C2Cc2ccccc2)c1 (stereo not drawn)
    . | -1.8
CCCCCC(=O)Nc1ccc(S(=O)(=O)Nc2nccnc2OC)cc1
    -0.62 | .
CCCN(CCC)c1nn2c(=O)c(C(=O)NC(C)C)cnc2s1
    . | 0.85
COCCCNC(=O)NCc1ccc2ncccc2c1
    . | -1.8
O=C(OC1=CN(Cc2ccccc2)S(=O)(=O)c2ccccc21)c1ccccc1Cl
    1.6 | 1.1
COCCCNC(=O)N1CCC2(CC1)Nc1cc(F)ccc1-n1cccc12
    . | 1.1
COc1ccc(C2CC(=O)C3=C(C2)NC(C)=C(C(=O)OCC(C)C)C3c2ccc(O)c(OC)c2)cc1 (stereo not drawn)
    -1.7 | -0.02
CCN(CC)c1cc2c(cc1F)c(=O)c(S(=O)(=O)c1ccc(OC)cc1)cn2CC
    . | -0.29
CC(=O)N1C(=O)C2(Nc3ccccc3N2)c2ccccc21
    -1.7 | .
CCN1CCN(c2cc3c(cc2F)c(=O)c(S(=O)(=O)c2ccc(C)cc2)cn3CC)CC1
    . | -0.53
CC(NC(=O)c1cc2c(s1)-c1ccccc1OC2)c1ccc2c(c1)OCCO2 (stereo not drawn)
    -0.29 | 0.79
Cc1ccc(NS(=O)(=O)c2ccc(N3CCCCS3(=O)=O)cc2)cc1Cl
    . | 0.07
